YopH PTP inh = YopH (Yersinia) phosphatase inhibition | fluorescence Ex485/Em525 | inhibition, %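 (about 10 µM by stock and volumes)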 | 140,000 tested, 0.16% active;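 active means inhibition of 50% or more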;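 further: controls were vehicle for no effect and minimum signal wells for full effect; inactives centre near -20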
Arbovirus anti = arbovirus infection inhibition | inhibition, % at 10 µM | 200,000 tested, 0.37% active | AID 1251 | arbovirus infection cell-based antiviral screen;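 active means inhibition from about 30%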;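 further: bluetongue infection of BSR cells; cell survival read as ATP light after 72 h; 0% = infected wells without compound and 100% = uninfected wells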
RecA intein inh = blocks M. tuberculosis RecA intein splicing | inhibition, %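 (about 9 µM by stock and volumes)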 | AID 2221 | P9WHJ3 | cell-free RecA intein splicing, fluorescence | 290,000 tested, 0.75% active; in the data active means inhibition above about 30%;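 further: 0% = vehicle wells and 100% = reference inhibitor control wells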
Target sequence (P9WHJ3 whole entry, looked up): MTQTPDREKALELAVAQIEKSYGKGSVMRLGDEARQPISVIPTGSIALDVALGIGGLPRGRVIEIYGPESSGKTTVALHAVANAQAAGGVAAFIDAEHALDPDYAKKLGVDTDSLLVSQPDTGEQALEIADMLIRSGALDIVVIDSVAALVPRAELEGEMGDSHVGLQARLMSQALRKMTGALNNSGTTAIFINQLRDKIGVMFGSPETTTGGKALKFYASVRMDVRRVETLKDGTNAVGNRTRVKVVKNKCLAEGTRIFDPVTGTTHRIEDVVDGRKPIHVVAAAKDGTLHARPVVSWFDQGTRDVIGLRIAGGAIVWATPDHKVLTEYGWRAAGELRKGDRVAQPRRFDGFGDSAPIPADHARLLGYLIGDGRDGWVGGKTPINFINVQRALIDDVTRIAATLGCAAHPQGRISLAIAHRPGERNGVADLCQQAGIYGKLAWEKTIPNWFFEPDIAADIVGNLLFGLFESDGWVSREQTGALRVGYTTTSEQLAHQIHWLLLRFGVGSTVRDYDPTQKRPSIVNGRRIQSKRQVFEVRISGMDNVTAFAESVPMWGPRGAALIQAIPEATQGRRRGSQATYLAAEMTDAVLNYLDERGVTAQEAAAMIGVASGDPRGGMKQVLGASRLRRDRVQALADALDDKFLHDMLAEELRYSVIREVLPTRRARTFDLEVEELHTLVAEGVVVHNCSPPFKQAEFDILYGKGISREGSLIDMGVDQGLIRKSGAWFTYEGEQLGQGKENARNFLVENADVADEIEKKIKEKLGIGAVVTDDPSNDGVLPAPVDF
Mtb betalactam = beta-lactam sensitization of Mtb H37Rv; M. tuberculosis H37Rv growth with meropenem, percent inhibition; hits of this screen are not shown here; inhibition, % at 25 µM; 330,000 tested, 0.27% active; AID 434955;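 active means about 74% or more and at least 40 points above the plate without the antibiotic, then above 30% in a dose series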;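 further: growth measured after seven days incubation then overnight dye step; 0% = bacteria only wells and 100% = bacteria with antibiotic; twin plates without the antibiotic show which effects depend on it; some results filed as inactive read as strong as hits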
Mtb H37Rv = M. tuberculosis H37Rv growth inhibitors, H37Rv strain (AID 1626); M. tuberculosis H37Rv growth inhibition; higher % means a stronger effect; inhibition, % at 10 µM; hits with a dose series show IC50 in µM; 220,000 tested, 0.95% active;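 active means confirmed in a dose series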;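 further: bacteria incubated seven days before Alamar blue readout; 0% = bacteria only wells and 100% = bacteria with antibiotic wells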
Arbovirus anti repeat = second read-out of Arbovirus anti, no call of its own (marks repeat the call); inhibition, %; measured here: 10K subset replicate screen; many hits read low in the repeat;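 first of two repeat runs on a subset; 0% = infected and 100% = uninfected wells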
Starred values were filed as active, the others as inactive; . = not tested or not shown. This is a subset; rates above refer to the full screens.

SMILES	YopH PTP inh	Arbovirus anti	RecA intein inh	Mtb betalactam	Mtb H37Rv	others
COc1cccc(N/C(N)=N/c2nc(CSc3ccccn3)cc(=O)[nH]2)c1	.	-14	-0.6	-6	-9%
Cc1nc([N+](=O)[O-])c(C(=O)OCc2ccc(C#N)cc2)n1C	.	6	8.6	-10	-2%
CCOC(=O)C1CCN(c2nc3ccccc3n2CC(=O)c2ccccc2)CC1	.	6	0.8	-3	-2%
O=C(Nc1nc2ccccc2n1CCN1CCCC1)c1ccc(Cl)cc1	-27	-4	.	13	59%	Arbovirus anti repeat=-15
COC(=O)C(Cc1ccccc1)OS(N)(=O)=O (stereo not drawn)	.	.	-1.3	-5	.
CCC(=O)NNc1ncnc2c1cnn2-c1ccccc1	.	5	-1.0	-12	-3%
COc1ccc2[nH]c(=O)c(CN(CCc3ccccc3)Cc3nnnn3CC3CCCO3)cc2c1 (stereo not drawn)	1	1	-15	49	-4%
COc1ccc(C(=O)c2sc(Nc3cccc(OC)c3)c(C(=O)Nc3cccc(C)c3C)c2N)cc1	-2	-8	-4.3	-2	-10%
CC(=O)NC1C(=O)N(Cc2ccccc2)c2ccc(Br)cc21 (stereo not drawn)	.	.	2.2	5	-2%
CCC1CCCCN1C(=O)COC(=O)CN(C)S(=O)(=O)c1ccc(NC(C)=O)cc1 (stereo not drawn)	.	.	-1.3	-2	.
CN1C(=O)[C@H]2[C@@H](/C=C/c3ccccc3)N3C(=O)CN(Cc4ccc(-c5ccccc5)cc4)C(=O)[C@@]3(Cc3ccccc3)[C@H]2C1=O	.	.	3.8	70	.
COc1cccc2c(=O)c(SC(F)(F)C(F)C(F)(F)F)c(C)[nH]c12 (stereo not drawn)	-25	-17	0.9	1	1%
CCN1C(=O)[C@H]2[C@@H](c3ccc(-c4cccc(Cl)c4)cc3)N[C@@](C)(C(=O)OC)[C@H]2C1=O	.	.	15	6	.
CCN(c1ccccc1)S(=O)(=O)c1ccc2c(c1)N(C(C)=O)CCS2	.	.	6.1	2	.
Cc1ccc(NC(=O)CSc2nnc(-c3ccncc3)o2)cc1	-17	21	-2.3	-5	2%
O=C(NCc1cccnc1)Nc1ccc(Cl)c(Cl)c1	.	.	-0.8	3	.
CCCCCCNc1c([N+](=O)[O-])cc(C)cc1[N+](=O)[O-]	-22	.	-0.6	-5	2%
Cc1ccc(-c2cc(N)n(-c3ccc(F)cc3)n2)cc1	.	-4	4.3	4	8%
O=C(NCc1ccccc1)c1ccc(N2C(=O)C3CCCCC3C2=O)cc1 (stereo not drawn)	-10	3	-0.8	1	14%
COc1ccc(-c2nnn(CC(=O)N3CCN(c4ccccc4OC)CC3)n2)cc1	-30	2	0.5	30	2%
COc1cc(OC)c(C(=O)OCC(=O)N(Cc2ccccc2)C(C)(C)C)cc1OC	.	-1	9.1	-1	-2%
O=C1C2C3C=CC(C3)C2C(=O)N1/N=C/c1cn(Cc2ccccc2)c2ccccc12 (stereo not drawn)	-37	14	6.0	0	11%
C=CCn1c(COc2ccc(F)cc2)nnc1SCC(=O)NC1CCS(=O)(=O)C1 (stereo not drawn)	.	.	-1.2	-3	.
N#C/C(=C\c1ccc2c(c1)OCO2)C(N)=S	.	.	1.0	1	-12%
Nc1nnc(-c2ccccc2F)s1	.	7	-0.2	-2	26%
Cc1onc(C(=O)NCc2ccc(F)cc2)c1[N+](=O)[O-]	.	3	-1.0	0	-2%
Cc1ccc(CNC(=O)CN2CCN(Cc3ccc(C)cc3)C2=O)cc1	-6	0	-1.3	1	-4%
Cc1cc(CN(C)C(=O)c2cc(COc3ccc(C)c(C)c3)on2)n[nH]1	.	.	1.3	-6	.
CN(C)N1C(N)=C(C#N)C(c2ccccc2F)C2=C1CC(C)(C)CC2=O (stereo not drawn)	.	.	-2.2	-5	.
CCOC(=O)c1c(NC(=O)CN2CCCCC2)sc(CN(C)C)c1-c1ccccc1	.	0	13	83	3%
Cc1cccc(C)c1NC(=O)C(c1ccccc1)N1CCC1=O (stereo not drawn)	-12	3	1.4	-5	-2%
Cc1ccc(NC(=O)C2CC(Cl)=CCC2C(=O)O)c([N+](=O)[O-])c1 (stereo not drawn)	.	-2	-2.4	-7	-9%
COc1ccc(COC(=O)NC2CCN(S(=O)(=O)c3ccc(OC)cc3)CC2)cc1	-6	14	-0.9	3	2%
CNS(=O)(=O)c1cc(C(=O)O)ccc1OC	.	3	1.4	-6	5%
COc1ccccc1C(=O)Nc1ccc(-c2nnn(CC(=O)N3CCOCC3)n2)cc1	.	-4	-4.0	4	67%
COc1nc(-c2ccccc2)ccc1-c1noc(-c2ccco2)n1	33	-4	.	1	-9%
Cc1ccc2occ(/C=N/NC(=O)c3ccccc3Br)c(=O)c2c1	.	.	1.0	-1	.
COC(=O)[C@@H]1C[C@H]2CC[C@H](O)C[C@H]2N1Cc1ccccc1OC(=O)c1cccs1	.	.	2.1	-2	-7%
Cc1ccc(NC(=O)CSCc2ccc(F)cc2)cc1	-23	2	3.9	7	77%
O=C1N/C(=C\c2ccc(N3CCOCC3)c(F)c2)C(=O)N1Cc1ccccc1	-2	-27	-2.5	0	-6%
CCCCNC(=O)c1cn(CC(C)C)c(=O)c2c1c1ccccc1n2C	.	.	-1.6	5	.
Cc1ccc(NC(=S)N2CCc3[nH]c4ccccc4c3C2)cc1	.	.	2.0	-2	0%
O=C1c2ccccc2C(=O)N1CCCc1cn(C[C@H]2CC[C@@H]([C@@H]3CC[C@H](Cn4cc(CCCN5C(=O)c6ccccc6C5=O)nn4)O3)O2)nn1	.	.	0.0	3	.
COc1ccc(C(C)C)cc1S(=O)(=O)NCC1CCCO1 (stereo not drawn)	.	.	1.0	-2	.
CCOc1ccc(CCNC(=O)CN2C(=O)NC3(CCCCC3C)C2=O)cc1OCC (stereo not drawn)	.	.	-0.5	-8	.
Cc1cc(C)n(-c2ccc(F)cc2)c(=O)c1C#N	.	-3	-1.2	1	-2%
COCCN(C(=O)COC(=O)CCCOc1ccccc1)c1c(N)n(Cc2ccccc2)c(=O)[nH]c1=O	.	.	1.8	-4	.
COc1ccc(C[C@H]2NC[C@H](O)[C@H]2OC(C)=O)cc1	.	.	-1.2	-3	-12%
CCCCn1c(N)c(N(CCOC)C(=O)COC(=O)COc2cc(C)ccc2Cl)c(=O)[nH]c1=O	.	.	-1.5	-2	.
COc1ccc(C(=O)NC2CCN(S(=O)(=O)Cc3ccccc3)CC2)c(OC)c1	-30	-1	0.1	-7	-8%

New compounds follow
SMILES	YopH PTP inh	Arbovirus anti	RecA intein inh	Mtb betalactam	Mtb H37Rv	others
O=C(CSc1nc2ccccc2nc1SCC(=O)N1CCCCC1)N1CCCCC1	6	8	0.2	-2	10%
N#CCCN(C(=O)COC(=O)C1=NNC(=O)CC1)c1ccccc1	.	.	-1.1	-1	.
O=C(O)c1cc2nc(-c3cccs3)cc(C(F)(F)F)n2n1	.	0	-36	2	-12%
Nc1nnc(SCC(=O)Nc2cc(S(=O)(=O)N3CCOCC3)ccc2Cl)s1	.	15	0.3	-3	5%
COc1ccc(N2CC(O)(c3ccc(C)cc3)[N+]3=C2CCCC3)cc1 (stereo not drawn)	.	-9	1.2	-3	1%
N#CC1=C(SCC(=O)Nc2ccc(C(=O)O)cc2)NC(=O)CC1c1ccco1 (stereo not drawn)	.	.	-2.5	2	-5%
O=c1nc(N2CCCCC2)nc(Nc2ccccc2)[nH]1	-8	11	-4.7	2	-10%
Cc1ccc(C(=O)CCC(=O)Nc2ccccc2F)cc1	.	.	-1.0	3	.
CC(NC(=O)c1ccc(F)cc1)C(=O)NC1=NCCS1 (stereo not drawn)	.	5	0.0	-9	4%
CC(C)C(NC(=O)C12CC3CC(CC(C3)C1)C2)C(=O)O (stereo not drawn)	-20	7	-1.1	-6	-8%
O=C(Nc1cccnc1)c1ccc(COc2cc(Cl)ccc2Cl)o1	5	-24	-3.2	12	-13%
Cc1cc(Nc2ccc(C)c(Cl)c2)nc(N2CCOCC2)n1	.	.	0.9	6	13%
O=C(C[n+]1ccc(C(=O)N/N=C/c2ccc(Br)cc2)cc1)c1ccccc1	-15	-4	-1.4	96	80%
O=C(NC12CC3CC(CC(C3)C1)C2)c1ccccc1O	-13	22	2.5	-11	-10%
Cc1ccccc1NC(=O)Cc1nc(-c2ccc3ccccc3c2)cs1	-6	-4	-3.3	-1	.
Oc1ccc(/C=N/N(Cc2ccccc2)c2ccccc2)c(O)c1O	.	1	18	.	-3%
CC(=O)Nc1nnc(SCC(=O)NC(C)(C)C)s1	-47	-4	0.3	5	-2%	Arbovirus anti repeat=9
COc1ccc(NC(=S)N(Cc2cccnc2)Cc2cc3cc(OC)c(OC)cc3[nH]c2=O)cc1	.	2	3.0	1	5%
COC(=O)c1nc(N)sc1-c1ccc(Cl)cc1	.	5	-2.7	1	2%
COc1ccccc1C(=O)NC(=O)COC(=O)C1CC1	.	.	-2.7	3	.
Cc1cc(OCC(=O)Nc2ccc(S(=O)(=O)N3CCN(C)CC3)cc2)ccc1Cl	-21	-3	4.3	1	1%
CC1CCN(C(=O)c2ccc(CS(=O)(=O)Cc3ccccc3)cc2)CC1	.	.	-0.6	-15	.
CC(=O)Nc1ccc(/C=C2\CCc3ccccc3C2=O)cc1	.	.	16	3	.
O=C(CNC(=O)c1ccc(Br)o1)OCC(=O)c1cccc([N+](=O)[O-])c1	.	-2	-0.8	3	-1%
O=C(c1cc2ccccn2n1)N1CCN(Cc2ccccc2)CC1	-32	4	-0.1	4	7%	Arbovirus anti repeat=2
CN1CCN(CC(O)Cn2c3ccccc3c3ccccc32)CC1 (stereo not drawn)	.	.	-2.8	4	.
COc1cc(-c2nnc(SCC(=O)NC3CCCC3)n2C)cc(OC)c1O	.	.	-4.9	-1	.
CC(C)C1N=C2c3ccccc3N=C(SCC(=O)NCCc3ccc(S(N)(=O)=O)cc3)N2C1=O (stereo not drawn)	-30	5	-0.5	-1	-4%
CC1CN(C(=O)COC(=O)c2cc(=O)c3ccccc3o2)CC(C)O1 (stereo not drawn)	.	.	-0.9	6	.
O=C(Nc1ccn(Cc2ccccc2)n1)c1ccc(F)cc1	.	-12	-2.0	6	16%

An excerpt from above in order of SMILES length, high to low.
SMILES	YopH PTP inh	Arbovirus anti	RecA intein inh	Mtb betalactam	Mtb H37Rv	others
CC(C)C1N=C2c3ccccc3N=C(SCC(=O)NCCc3ccc(S(N)(=O)=O)cc3)N2C1=O (stereo not drawn)	-30	5	-0.5	-1	-4%
CC1CCN(C(=O)c2ccc(CS(=O)(=O)Cc3ccccc3)cc2)CC1	.	.	-0.6	-15	.
CC(=O)Nc1ccc(/C=C2\CCc3ccccc3C2=O)cc1	.	.	16	3	.

The listing picks up, starting 5 compounds before the break.
SMILES	YopH PTP inh	Arbovirus anti	RecA intein inh	Mtb betalactam	Mtb H37Rv	others
CN1CCN(CC(O)Cn2c3ccccc3c3ccccc32)CC1 (stereo not drawn)	.	.	-2.8	4	.
COc1cc(-c2nnc(SCC(=O)NC3CCCC3)n2C)cc(OC)c1O	.	.	-4.9	-1	.
CC(C)C1N=C2c3ccccc3N=C(SCC(=O)NCCc3ccc(S(N)(=O)=O)cc3)N2C1=O (stereo not drawn)	-30	5	-0.5	-1	-4%
CC1CN(C(=O)COC(=O)c2cc(=O)c3ccccc3o2)CC(C)O1 (stereo not drawn)	.	.	-0.9	6	.
O=C(Nc1ccn(Cc2ccccc2)n1)c1ccc(F)cc1	.	-12	-2.0	6	16%
Cc1ccc(C(C)NC(=O)C2CCCC2)cc1C (stereo not drawn)	.	.	0.4	-10	.
COc1ccccc1NC(=O)CSc1nnc(COc2ccccc2C)o1	.	.	0.9	-6	.
Cc1ccc(-c2[nH]nc3c2C(c2ccc(OC(=O)N4CCOCC4)cc2)C(C#N)=C(N)O3)cc1 (stereo not drawn)	-5	-1	82*	-1	-4%
O=C(CN1C(=O)c2cccnc2C1=O)c1ccccc1	-30	-2	0.3	-1	-13%
CC(C(=O)O)c1cccc(C(=O)c2ccccc2)c1 (stereo not drawn)	-36	-3	4.6	6	-1%
CC(C)Cc1cc(CN2CCC(CO)(Cc3cccc(C(F)(F)F)c3)CC2)[nH]n1	.	-31	-0.8	35	-11%
O=C(Nc1ccc2c(c1)CCC2)C1COc2ccccc2O1 (stereo not drawn)	-24	18	.	63	46%
CCC(C)NC(=O)c1c(-c2cc(Cl)c(OC)c(Cl)c2)noc1C (stereo not drawn)	-7	6	.	3	.	Arbovirus anti repeat=-4
CCN(CC)Cc1c(C(=O)N/N=C/c2ccncc2)nnn1-c1nonc1N	.	.	-2.1	2	.
O=c1cnnc(Nc2ccc(F)cc2)[nH]1	.	0	-0.1	-3	3%
O=[N+]([O-])c1ccc(F)cc1Oc1nc(-c2cccnc2)nc2ccccc12	.	3	-3.1	4	11%
COc1ccc(NC(C)C(=O)N/N=C/c2ccccc2OCc2ccc(Br)cc2)cc1 (stereo not drawn)	-12	-6	1.8	2	-5%
COc1ccccc1N(CC(=O)NCc1ccc2c(c1)OCO2)C(=O)CCC(=O)Nc1nccs1	.	.	2.3	5	.
